UCH37 DUB inh: inhibitors of human deubiquitinating enzyme UCH37; Q9Y5K5; purified proteasome/UCH37, Ub-AMC cleavage fluorescence; inhibition, % (concentration not given with the values); 330,000 tested, 0.33% active; AID 588478;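 active means mean of two replicates above 20%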;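 further: 0% = compound-free wells with enzyme and 100% = wells lacking proteasome; stock transfer was 100 nL into about 20 µL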
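Material: human UCH37 enzyme supplied as purified proteasome complex / Amount: 0.15 nM proteasome as dispensed / Buffer or medium: pH 7.4 Tris-HCl (50 mM) with ovalbumin, ATP-MgCl2, DTT / Times: preincubation 30 min, reaction 25 min, room temperature / Technique: AMC fluorescence from Ub-AMC cleavage, excitation 355 nm, emission 460 nm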
Calb FLC: C. albicans growth modulation with fluconazole; C. albicans CaCi-2 (fluconazole-resistant clinical isolate) + fluconazole, Alamar Blue growth, 48 h; growth inhibition, % (concentration not given with the values); 300,000 tested, 0.57% active;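 active means most replicates above 75%; inconclusive means exactly half above 75%; inactive means most below 75%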;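 further: all wells also contain fluconazole at 8 µg/ml as a sub-toxic cotreatment; 0% = median of DMSO wells and 100% = median of geldanamycin control wells; wells of about 8 µL received 7.5 nL stock; the first replicate is given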
T cruzi inh: blocks replication of Trypanosoma cruzi; T. cruzi beta-gal in NIH3T3, luminescence, 90 h; inhibition, % (no concentration beside the values); 300,000 tested, 1.4% active;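 active means mean inhibition across valid replicates above about 55%, limit read from the data; inconclusive means mean below that limit but half or more replicates reach it; inactive means mean below it, under half of replicates reach it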;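 further: signal also drops with host cell toxicity which is not excluded here; 0% = plate median of DMSO wells and 100% = zero luminescence signal; higher percent means less beta-gal luminescence so fewer parasites; stock transfer was 50 nL into about 50 µL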
A1 inh: inhibitors of the anti-apoptotic protein A1, read as caspase activation; MEF A1-2A-BIM cells, Caspase-Glo 3/7 luminescence, 3 h; percent of clofoctol response, vehicle zero; caspase activation, % (concentration not given with the values); 330,000 tested, 0.066% active; AID 2462;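 active means over half of replicate activation scores above 10%, or exactly half above 10 with the replicate mean above 10; inconclusive means replicate mean below 10 yet half the replicates above 10; inactive means over half of replicates below 10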;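 further: wells of about 30 µL received 50 nL stock; many hits fall short of the cut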
RanGTP-Impb inh: inhibitors of RanGTP-importin-beta interaction, primary screen, biochemical, FRET, CFP-Ran, YFP-importin-beta, homogeneous; cell-free CFP-Ran/YFP-importin-beta FRET ratio; inhibition, % (no concentration beside the values); 300,000 tested, 1.1% active; AID 2216;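 active means most replicates above 15%; inconclusive means exactly half above 15%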;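 further: 0% = DMSO wells and 100% = Ran loaded with GDP instead of GTP; wells of about 40 µL received 100 nL stock; the first replicate is given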
B2AR ag: activates human beta-2 adrenergic receptor causing internalization. P07550. Am2.2-beta2AR cells, FAP receptor internalization, flow cytometry; reference of the scale not given here. response, % (no concentration beside the values). 340,000 tested, 0.43% active. AID 504454;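 active means response above a set limit, near 3 SD of response in nonfluorescent compounds, cut at about 42% in these data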;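 further: stock transfer was 100 nL into about 11 µL; a reference agonist was the positive control; negative values mostly stem from fluorescent compounds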
Beta apoptosis: beta cell apoptosis inhibition. INS-1E cytokine-induced death, ATP luminescence, 48 h; percent of positive-control rescue, neutral wells zero. protection from apoptosis, % (concentration not given with the values). 300,000 tested, 0.8% active;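 active means all replicates at 75% or more, or half of them and the mean; inconclusive means half reach 75% but not the mean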;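 further: 0% = cytokine-treated negative control wells and 100% = positive control rescue; higher means more ATP so stronger rescue from cytokine killing; wells of about 40 µL received 100 nL stock; the first replicate is given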
LANA-H2B inh: blocks KSHV LANA binding to histone H2A/H2B | cell-free LANA-H2A/H2B peptide, fluorescence polarization | inhibition, % (no concentration beside the values) | 320,000 tested, 0.6% active | Q9QR71; in the data active means inhibition mostly above about 10%, no sharp cut-off; inactive means mostly below about 6.7%;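 further: stock transfer was 7.5 nL into about 10 µL; 0% = median of vehicle wells and 100% = median of positive control wells; one replicate is shown; the record names a cut of 25% in any replicate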
Target sequence (Q9QR71 whole entry, looked up): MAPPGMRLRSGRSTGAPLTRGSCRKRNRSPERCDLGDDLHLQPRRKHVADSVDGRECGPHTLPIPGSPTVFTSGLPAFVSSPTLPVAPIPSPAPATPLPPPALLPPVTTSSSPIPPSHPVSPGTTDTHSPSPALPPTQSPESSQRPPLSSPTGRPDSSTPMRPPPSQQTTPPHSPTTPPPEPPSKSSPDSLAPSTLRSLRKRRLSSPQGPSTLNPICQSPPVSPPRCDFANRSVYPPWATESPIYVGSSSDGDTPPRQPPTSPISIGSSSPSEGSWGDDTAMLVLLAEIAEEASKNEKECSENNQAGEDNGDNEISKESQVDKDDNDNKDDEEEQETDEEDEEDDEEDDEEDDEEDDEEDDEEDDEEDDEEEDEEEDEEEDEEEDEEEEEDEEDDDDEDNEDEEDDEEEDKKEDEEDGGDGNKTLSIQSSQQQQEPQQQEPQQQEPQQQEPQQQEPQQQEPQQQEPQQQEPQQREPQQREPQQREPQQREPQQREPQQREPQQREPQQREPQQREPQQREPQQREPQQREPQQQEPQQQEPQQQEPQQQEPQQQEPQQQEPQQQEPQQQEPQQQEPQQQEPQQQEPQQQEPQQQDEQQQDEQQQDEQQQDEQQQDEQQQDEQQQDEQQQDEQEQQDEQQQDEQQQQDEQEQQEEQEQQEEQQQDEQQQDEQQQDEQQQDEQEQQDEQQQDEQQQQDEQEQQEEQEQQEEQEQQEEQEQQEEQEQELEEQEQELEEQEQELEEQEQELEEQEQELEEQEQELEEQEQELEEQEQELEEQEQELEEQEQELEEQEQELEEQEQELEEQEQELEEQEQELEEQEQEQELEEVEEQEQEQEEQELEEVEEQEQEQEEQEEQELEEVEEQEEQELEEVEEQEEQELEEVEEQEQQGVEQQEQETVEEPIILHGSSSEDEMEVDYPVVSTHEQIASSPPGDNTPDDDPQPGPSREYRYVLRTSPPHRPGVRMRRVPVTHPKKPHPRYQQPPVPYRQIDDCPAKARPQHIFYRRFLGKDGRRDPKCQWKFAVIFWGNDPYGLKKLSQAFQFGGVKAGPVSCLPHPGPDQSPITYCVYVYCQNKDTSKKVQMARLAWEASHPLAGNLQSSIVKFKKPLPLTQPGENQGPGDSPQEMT
An asterisk follows results filed as active; ? = inconclusive; · = no result given.

SMILES | UCH37 DUB inh | Calb FLC | T cruzi inh | A1 inh | RanGTP-Impb inh | B2AR ag | Beta apoptosis | LANA-H2B inh
CCC(=O)N(c1ccc(F)cc1)C1C=CS(=O)(=O)C1 (stereo unspecified) | -0.1 | 19 | -5 | 0.5 | -3.2 | 17 | -3 | -4.0
COc1ccc(C(=O)O)cc1S(=O)(=O)NCc1ccccn1 | 2.0 | -5 | -4 | 1.1 | -1.3 | 11 | -5 | 1.8
COc1ccc(-n2c(C)nc3c(cnn3-c3ccc(C)cc3)c2=O)cc1 | 1.9 | 27 | -13 | 0.1 | 5.9 | -11 | -1 | 3.2
COCC(=O)Nc1nc2n(n1)C(c1ccc(OC)cc1)CC(c1ccc(OC)cc1)N2 (stereo unspecified) | -0.9 | 0 | 0 | · | 0.6 | 2 | · | ·
Cc1ccc([N+](=O)[O-])cc1N1C(=O)CS/C1=N\NC(=O)c1cccnc1 | · | 4 | 2 | 0.8 | -3.2 | 6 | -7 | 0.6
CC(=O)Nc1ccc(-c2csc(NCCc3ccccc3)n2)cc1 | 1.4 | -1 | 3 | 0.7 | 3.5 | 7 | -5 | -1.1
CN1C(=O)N(C)C2(c3ccccc3)N(C)C(=O)NC12c1ccccc1 (stereo unspecified) | 0.8 | 2 | -5 | -0.3 | -16 | 2 | -7 | -3.3
CC1CN(CCCCSc2ccccc2)CC(C)O1 (stereo unspecified) | 1.5 | -7 | 18 | -0.6 | 2.7 | 3 | 2 | 2.8
CN(C)CCCNC(=O)c1ccc(Cl)c(S(=O)(=O)N2CCCCCC2)c1 | 1.3 | · | · | 0.7 | · | 28 | -1 | -0.8
c1cc(-c2nnn(CCOCCn3nnc(-c4ccncc4)n3)n2)ccn1 | 5.2 | 5 | -5 | 0.0 | 0.8 | 7 | -4 | 0.5
COc1ccc(C)cc1NC(=O)c1ccc2c(O)c(S(=O)(=O)c3ccccc3)c(=O)[nH]c2c1 | 8.3 | -10 | -17 | -0.1 | -0.8 | 9 | · | 3.8
COc1ccc(C2SCC(=O)N2c2c(C)n(C)n(-c3ccccc3)c2=O)cc1OC (stereo unspecified) | 5.2 | ? | -11 | 0.4 | ? | 12 | -8 | 2.8
O=C(CCCN1C(=O)/C(=C\c2ccccc2)SC1=S)Nc1cccc(C(=O)O)c1 | · | -5 | 4 | 0.8 | -3.1 | 6 | -4 | -0.3
Cc1[nH]n(-c2ccccc2)c(=O)c1/C=N/NC(=O)c1cccc(F)c1 | · | -39 | -25 | -1.4 | 1.4 | -2 | 92* | -1.4
COc1ccc(CCN2CC(C(=O)NCCc3ccccc3C(F)(F)F)CCC2=O)cc1 (stereo unspecified) | 3.8 | -4 | 1 | -2.4 | -1.7 | -5 | · | 1.3
COc1ccc(CC(=O)NNc2ncnc3c2cnn3-c2ccccc2)cc1 | 2.5 | -1 | -8 | 0.1 | -1.4 | 1 | -1 | -1.7
CCCCN(CCCC)CCNC(=O)c1cn(CC)c2ccc(S(=O)(=O)N3CCc4ccccc4C3)cc2c1=O | 2.8 | -5 | 36 | -0.3 | 6.9 | 26 | 3 | 1.5
Cn1c(=O)c2c(nc(N3CCOCC3)n2CC(=O)C23CC4CC(CC(C4)C2)C3)n(C)c1=O | -1.0 | 8 | -8 | 0.0 | -2.7 | -5 | 7 | 1.0
S=c1[nH]nc2n1CCCN2 | 5.2 | -2 | -24 | 0.8 | 4.3 | 3 | 2 | 2.6
Cc1cc(=O)oc(C)c1C(=O)NCCc1ccccc1 | -0.3 | 1 | -3 | 0.8 | -1.8 | 4 | -1 | -0.2
CCN(CC)C(=O)CC(c1ccc2c(c1)OCO2)c1c(O)cc(OC)cc1OC (stereo unspecified) | 5.2 | 2 | 2 | 1.0 | ? | -13 | 0 | 5.8
CCc1ccccc1NC(=O)[C@@H]1CCC(=O)N1C1OC(=O)c2c1ccc(OC)c2OC (stereo partly specified) | 2.8 | -7 | -3 | -0.8 | 1.1 | 11 | -1 | -4.1
CCOCCCNC(=O)C1CCN(S(=O)(=O)CC)CC1 | -0.9 | -6 | -19 | -0.3 | -2.4 | -2 | 1 | -6.4
CC(Sc1nc2cc(Cl)ccc2s1)C(=O)Nc1cccc(S(=O)(=O)N2CCOCC2)c1 (stereo unspecified) | 3.7 | 7 | -1 | -0.6 | 3.1 | 8 | 3 | 0.7
Cc1nn(C)c(C)c1/C=C1/SC(=S)NC1=O | 12 | 25 | 0 | -0.1 | 1.1 | 0 | -4 | -1.3
OC(COc1ccc2c(c1)OCO2)CN1CCCC1 (stereo unspecified) | -0.6 | 46 | 6 | -0.4 | 2.5 | -4 | -1 | -3.0
O=C(CCN1C(=O)/C(=C/c2ccccc2Cl)SC1=S)NNC(=O)c1cccnc1 | 12 | 6 | 9 | -0.4 | 0.1 | -2 | -1 | -0.2
CC(=O)N1CCN(CC(=O)Nc2ccc([N+](=O)[O-])cc2Br)CC1 | 3.8 | 10 | -1 | 1.5 | 1.8 | -7 | -1 | -4.3
Cc1ccc(C)c(-n2c(-c3cccnc3)n[nH]c2=S)c1 | 2.8 | 3 | -6 | 0.5 | 2.7 | -7 | 1 | 1.5
CC1(c2ccccc2)NC(=O)N(CC(=O)NCc2ccc3c(c2)OCO3)C1=O (stereo unspecified) | 3.1 | 4 | -11 | 0.9 | 0.0 | -2 | -6 | 6.3
COc1ccc(NC(=O)Cc2ccccc2)cc1 | 1.4 | 0 | -12 | -4.3 | -3.3 | 8 | · | 1.1
CCN(CC)C(=O)c1cnn(-c2ccccc2)c1NC(=O)c1cccc(F)c1 | 1.7 | -1 | 2 | 0.4 | 4.2 | -2 | 3 | 1.2
COc1ccc(-c2cc(C(=O)Nc3c(C)n(C)n(-c4ccccc4)c3=O)c3ccccc3n2)c(OC)c1 | 2.0 | -5 | 7 | 0.4 | -3.9 | 11 | 3 | 12
Cc1cccc(CCNc2nc3ccc(C)cc3n3cnnc23)c1 | -32 | -2 | 20 | -0.9 | -2.5 | -13 | 2 | -3.0
COc1ccc(OC)c(-c2csc(N(C)C(=O)Cc3ccccc3)n2)c1 | 1.5 | -20 | 19 | 0.0 | · | 6 | -14 | -1.3
COc1ccc(C(=O)N/C(=C\c2cn(C)c3ccccc23)C(=O)N2CCOCC2)cc1OC | 10 | -2 | -6 | 0.1 | -2.0 | -3 | -1 | -1.6
Cc1ccc2cccc(OC(=O)c3ccc4c(c3)OCCO4)c2n1 | 1.4 | 29 | 4 | -0.1 | -0.2 | 6 | -5 | -3.4
Cc1cccc(C)c1NC(=O)CS(=O)CC(=O)NCCCc1ccccc1 (stereo unspecified) | 6.3 | -19 | -2 | 1.2 | 3.9 | 1 | -1 | -1.6
CCN(CC(=O)Nc1c(F)cccc1F)C(=O)CCCNC(=O)c1ccc(Cl)cc1 | 4.4 | -3 | 5 | 0.7 | 1.4 | -6 | 2 | -0.7
CN(C)CCNC(=S)Nc1ccc(Br)cc1 | 3.0 | -7 | 1 | -0.7 | 10.0 | -5 | -1 | -0.4
CCOc1ccc(CCNC(=O)CSCC(=O)Nc2cccc(C)c2)cc1OCC | 1.1 | -5 | -6 | -0.3 | -2.0 | -6 | -7 | -0.4
CC(=O)Nc1cc2c(=O)n(Cc3ccccc3)c(C)nc2cc1N1CCOCC1 | -9.5 | 5 | 9 | -1.4 | -1.4 | 0 | 4 | 0.0
Fc1cc(Cl)c(OCc2noc(-c3ccsc3)n2)c(Cl)c1 | 5.6 | -17 | -11 | 0.0 | 0.3 | 2 | -5 | -2.0
O=C(/C=C/c1ccco1)Nc1cccc(-c2nc3ccccc3[nH]2)c1 | · | 91* | -97 | -2.6 | -2.7 | 21 | 4 | 1.0
COc1cccc(CNC(=O)[C@H](C)NC(=O)C2CCN(S(=O)(=O)c3ccccc3)CC2)c1 | -2.5 | 10 | 3 | -0.2 | 1.0 | -4 | 1 | -0.5
O=S(=O)(c1ccc(Cl)nc1)N(Cc1ccccc1)Cc1ccccc1 | 3.0 | -1 | 11 | 0.7 | 1.9 | -17 | 3 | -1.9
O=C(O)COc1ccccc1/C=N/NC(=O)c1cccc(S(=O)(=O)Nc2cccc(Cl)c2)c1 | · | 0 | 1 | 0.4 | 3.8 | -5 | -3 | 0.5
Cc1ccc(Cl)cc1N1CCN(C(=O)C2CCN(S(C)(=O)=O)CC2)CC1 | 4.4 | 40 | 19 | 0.1 | -3.7 | 8 | -1 | 13*
COc1ccc(N(C(=O)c2ccc3c(c2)OCO3)C2C=CS(=O)(=O)C2)c(OC)c1 (stereo unspecified) | 3.3 | 16 | -8 | 0.2 | -1.0 | -3 | -2 | -1.3
Cc1ccc(NC(=O)C[n+]2cc(-c3ccccc3)n3c2CCC3)cc1 | 3.5 | 2 | -6 | 0.9 | 1.5 | -13 | 2 | 1.6
More entries.
SMILES | UCH37 DUB inh | Calb FLC | T cruzi inh | A1 inh | RanGTP-Impb inh | B2AR ag | Beta apoptosis | LANA-H2B inh
CCOc1ccc(CCNC(=O)c2cc(=O)[nH]c3ccc(S(=O)(=O)N(CC)CC)cc23)cc1OCC | 1.6 | -5 | 3 | -0.4 | 1.3 | 12 | 1 | -1.6
CC(C)CN(Cc1cc(=O)oc2cc3c(cc12)CCCC3)CC(C)C | 0.9 | -1 | -2 | -0.1 | -0.4 | -4 | 3 | 4.1
O=C(Nc1ccccn1)c1ccc(Br)c(S(=O)(=O)N2CCCCC2)c1 | -29 | -3 | 1 | 0.4 | ? | -7 | -14 | -0.9
CC(C)On1c(SCC(=O)N(C)C)nc2ccccc2c1=O | 4.2 | 12 | -6 | 0.1 | 5.1 | · | 6 | -9.3
CCn1c(C)nc2c(C)[n+](CC(=O)c3ccc(Br)cc3)ccc21 | 2.7 | -1 | 1 | -0.2 | 3.2 | -8 | -14 | -0.2
Cn1cccc1C(=O)NC(=O)COC(=O)CCNS(=O)(=O)c1ccc(Cl)cc1 | 1.3 | · | · | -0.5 | · | -4 | -8 | 2.7
CC(C)C(=O)Nc1oc(-c2ccccc2)cc1C#N | 0.3 | -1 | -18 | 0.9 | 1.7 | -18 | -1 | 2.5
CCOC(=O)c1c(CN(CC)CC)n(-c2ccccc2)c2ccc(O)cc12 | 0.5 | -11 | 8 | 0.8 | 3.0 | 6 | -5 | 1.5
O=C(O)CSCC(=O)N1CCCN(c2nc3ccc(Cl)cc3s2)CC1 | 0.5 | 0 | -9 | 0.3 | 1.9 | -4 | -5 | -0.4
Cc1nc2ncnn2c(C)c1CCC(=O)Nc1ccc(S(=O)(=O)N2CCCCCC2)cc1 | 0.6 | -10 | -1 | -0.7 | 1.5 | -2 | 5 | 3.0
Cc1ccc2cc(CCNC(=O)C(C)C)c(=O)[nH]c2c1 | -1.2 | -6 | -5 | 0.6 | -1.2 | -3 | 0 | -2.2
O=C(COc1nsnc1N1CCOCC1)Nc1ccc(Cl)cc1 | 3.4 | 10 | -1 | 1.0 | ? | -10 | 3 | -3.1

Assay outcomes deposited in PubChem by several laboratories.
